RanGTP-Imp inh: inhibitors of RanGTP-importin-beta interaction, primary screen, biochemical, FRET, CFP-Ran, YFP-importin-beta, homogeneous; cell-free CFP-Ran/YFP-importin-beta FRET ratio; Ran GTPase (GTP-bound) - importin-beta complex; inhibition, % (no concentration beside the values); hit rate 1.1% among 300,000;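 active = most replicates above 15%; inconclusive = exactly half above 15%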;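 also: 0% = DMSO wells and 100% = Ran loaded with GDP instead of GTP; wells of about 40 µL received 100 nL stock; the first replicate is given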
T cruzi inh: inhibitors of intracellular T. cruzi growth, primary screen, luminescence, NIH3T3 host cells; T. cruzi beta-gal in NIH3T3, 90 h; hit rate 1.4% among 300,000; inhibition, % (concentration not given with the values);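 active = mean inhibition across valid replicates above about 55%, limit read from the data; inconclusive = mean below that limit but half or more replicates reach it; inactive = mean below it, under half of replicates reach it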;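 also: signal also drops with host cell toxicity which is not excluded here; 0% = plate median of DMSO wells and 100% = zero luminescence signal; higher percent means less beta-gal luminescence so fewer parasites; stock transfer was 50 nL into about 50 µL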
Calb FLC: C. albicans growth inhibition with fluconazole, primary screen, CaCi-2 strain, Alamar Blue fluorescence; C. albicans CaCi-2 (fluconazole-resistant clinical isolate) + fluconazole, 48 h; growth inhibition, % (test concentration not listed); hit rate 0.57% among 300,000;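 active = most replicates above 75%; inconclusive = exactly half above 75%; inactive = most below 75%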;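 also: all wells also contain fluconazole at 8 µg/ml as a sub-toxic cotreatment; 0% = median of DMSO wells and 100% = median of geldanamycin control wells; wells of about 8 µL received 7.5 nL stock; the first replicate is given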
Beta apoptosis: inhibitors of cytokine-induced beta cell apoptosis, primary screen, luminescence; INS-1E cytokine-induced death, ATP luminescence, 48 h; percent of positive-control rescue, neutral wells zero; protection from apoptosis, % (no concentration beside the values); hit rate 0.8% among 300,000; AID 435005, 2010;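 active = all replicates at 75% or more, or half of them and the mean; inconclusive = half reach 75% but not the mean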;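 also: 0% = cytokine-treated negative control wells and 100% = positive control rescue; higher means more ATP so stronger rescue from cytokine killing; wells of about 40 µL received 100 nL stock; the first replicate is given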
Bfl-1 A1 inh: caspase 3/7 activation in MEF A1-2A-BIM cells, primary screen, A1 inhibitor project, cell-based, luminescence, HTS; caspase activation, % (no concentration beside the values); hit rate 0.066% among 330,000; Caspase-Glo 3/7 luminescence, 3 h; percent of clofoctol response, vehicle zero;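 active = over half of replicate activation scores above 10%, or exactly half above 10 with the replicate mean above 10; inconclusive = replicate mean below 10 yet half the replicates above 10; inactive = over half of replicates below 10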;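 also: wells of about 30 µL received 50 nL stock; many hits fall short of the cut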
UCH37 inh: inhibitors of human UCH37 deubiquitinase, primary screen, biochemical, Ub-AMC cleavage, fluorescence; Ubiquitin carboxyl-terminal hydrolase isozyme L5 (Homo sapiens), Q9Y5K5; purified proteasome/UCH37; inhibition, % (no concentration beside the values); hit rate 0.33% among 330,000; AID 588478, 2011;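 active = mean of two replicates above 20%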;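 also: 0% = compound-free wells with enzyme and 100% = wells lacking proteasome; stock transfer was 100 nL into about 20 µL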
Target sequence (Q9Y5K5 whole entry, looked up): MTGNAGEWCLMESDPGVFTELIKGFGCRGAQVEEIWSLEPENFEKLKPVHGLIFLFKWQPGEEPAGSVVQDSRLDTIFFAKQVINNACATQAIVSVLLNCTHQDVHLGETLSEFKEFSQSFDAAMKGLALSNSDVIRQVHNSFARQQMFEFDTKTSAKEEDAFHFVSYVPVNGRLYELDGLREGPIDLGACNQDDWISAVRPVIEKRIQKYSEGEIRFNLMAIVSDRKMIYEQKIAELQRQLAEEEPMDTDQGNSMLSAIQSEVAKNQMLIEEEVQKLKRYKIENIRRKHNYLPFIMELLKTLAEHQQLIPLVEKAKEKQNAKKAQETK
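assay system = human UCH37 enzyme supplied as purified proteasome complex | amount = proteasome at 0.15 nM in the dispensed enzyme solution | schedule = 30 min compound-proteasome preincubation then 25 min substrate reaction, room temperature | measured by = fluorescence, ex 355 nm, em 460 nm | benchmarks = no-proteasome wells (full inhibition) and compound-free wells (no inhibition)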
LANA-H2A inh: blockers of LANA interaction with H2A/H2B – biochemical, FP readout, HTS, primary screen. Protein LANA1 (Human herpesvirus 8 type P (isolate GK18)), Q9QR71. cell-free LANA-H2A/H2B peptide, fluorescence polarization. inhibition, % (test concentration not listed). hit rate 0.6% among 320,000; in the data active = inhibition mostly above about 10%, no sharp cut-off; inactive = mostly below about 6.7%;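 also: stock transfer was 7.5 nL into about 10 µL; 0% = median of vehicle wells and 100% = median of positive control wells; one replicate is shown; the record names a cut of 25% in any replicate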
Beta2AR agonist: beta2AR agonists driving receptor internalization, primary screen, cell-based, FAP fluorogen, flow cytometry; Beta-2 adrenergic receptor (Homo sapiens), P07550; Am2.2-beta2AR cells; reference of the scale not given here; response, % (no concentration beside the values); hit rate 0.43% among 340,000; AID 504454, 2011;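 active = response above a set limit, near 3 SD of response in nonfluorescent compounds, cut at about 42% in these data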;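 also: stock transfer was 100 nL into about 11 µL; a reference agonist was the positive control; negative values mostly stem from fluorescent compounds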
Target sequence (P07550 whole entry, looked up): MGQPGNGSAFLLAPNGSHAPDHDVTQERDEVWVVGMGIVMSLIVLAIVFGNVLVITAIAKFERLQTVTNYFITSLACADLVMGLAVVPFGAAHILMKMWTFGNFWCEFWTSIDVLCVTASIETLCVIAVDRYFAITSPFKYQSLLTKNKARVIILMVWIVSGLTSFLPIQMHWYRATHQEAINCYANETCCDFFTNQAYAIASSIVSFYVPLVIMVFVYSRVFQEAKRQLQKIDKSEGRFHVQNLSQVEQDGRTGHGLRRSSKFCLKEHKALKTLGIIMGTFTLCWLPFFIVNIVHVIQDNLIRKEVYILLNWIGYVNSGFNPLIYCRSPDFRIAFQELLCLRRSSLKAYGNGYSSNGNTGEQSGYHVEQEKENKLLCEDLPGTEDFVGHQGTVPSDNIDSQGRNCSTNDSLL
Numbers without * were called inactive; ? = inconclusive; / = no result given.

SMILES	RanGTP-Imp inh	T cruzi inh	Calb FLC	Beta apoptosis	Bfl-1 A1 inh	UCH37 inh	LANA-H2A inh	Beta2AR agonist
CCC(CO)Oc1cc(NC(=O)c2ccccc2)c2ncn(C(C)C)c2c1 (stereo not given)	/	/	/	5.3	0.5	0.9	-0.7	-0.7
Nc1cc([N+](=O)[O-])ccc1Nc1ccccc1	-5.2	7.5	-11.2	0.1	-0.2	6.6	-3.4	4.1
Cc1cc(OCc2nc(-c3cccs3)no2)cc(C)c1Cl	4.9	-1.9	5.0	-4.8	0.0	2.4	2.4	1.3
CCN(CC)C(=O)C1CCN(Cc2ccc(Br)cc2)CC1	-5.6	6.5	-4.4	-3.1	0.9	3.5	-3.7	7.2
CCOC(=O)C1CCN(C(=O)CSc2cc(=O)n(C)c3ccccc23)CC1	-3.9	8.7	-11.6	1.9	0.2	0.1	1.4	3.4
CC1=C(C(=O)Nc2cccc(C(=O)NCc3ccccc3C)c2)SCCO1	0.9	10.4	?	-1.5	?	3.9	-5.7	-2.7
CCOC(=O)N1CCN(S(=O)(=O)c2ccc(Br)s2)CC1	0.9	-3.4	-4.5	3.9	1.0	4.1	1.4	0.5
O=C(CCl)Nc1cc(-c2ccccc2)nn1-c1ccccc1	5.9	12.6	66.3	-9.3	-0.1	7.9	0.5	4.0
COCCN(C(=O)COC(=O)Cc1cccc2ccccc12)c1c(N)n(Cc2ccccc2)c(=O)[nH]c1=O	6.9	-6.3	6.9	-2.0	1.4	1.1	-0.6	2.5
COC(=O)NNC(=O)c1ccc(C)c(Br)c1	3.5	-5.8	-4.6	4.8	0.2	4.6	1.9	-5.4
Cn1c(N)c(C(C[N+](=O)[O-])c2ccccc2Cl)c(=O)n(C)c1=O (stereo not given)	1.9	-3.1	-4.6	3.7	-0.4	3.4	3.3	-2.8
COc1ccc(C(c2nnnn2C2CCCC2)N2CCN(c3ccccc3)CC2)cc1 (stereo not given)	-4.8	22.9	3.0	-1.0	1.2	4.3	-0.3	8.6
O=C(NCCNc1cc(Cl)ccc1[N+](=O)[O-])c1ccco1	2.4	20.5	39.7	0.0	1.2	5.1	3.7	-26.7
CCOC(=O)/C(C#N)=C/c1cc(C)n(-c2ccc(C)cc2)c1C	-1.0	20.0	1.3	4.2	-0.9	-1.4	6.3	9.1
O=C(OCCN1C(=O)c2ccccc2C1=O)c1cc(S(=O)(=O)N2CCOCC2)ccc1Cl	/	/	0.1	2.6	0.7	0.9	0.0	-2.9
Cn1c(SCc2ccccc2C#N)nnc1-c1ccncc1	4.8	-21.6	1.7	/	-0.6	2.3	-1.8	-6.0
CC(=O)N1CCOc2ccc(S(=O)(=O)Nc3ncccc3C)cc21	-0.9	-5.0	-10.2	-2.9	-3.8	4.3	-0.4	2.5
C/C(=N\NC(=O)c1ccc([N+](=O)[O-])cc1)c1cc2ccccc2oc1=O	2.4	-7.6	15.4	22.7	-0.6	/	-3.7	-1.1
COc1ccc2c(c1)CCc1c(C(=O)N3CC4(C)CC3CC(C)(C)C4)noc1-2 (stereo not given)	1.3	6.0	-9.6	-1.9	0.1	-0.8	-1.5	1.5
CC1CCCCC1NC(=O)CCS(=O)(=O)c1ccc(Cl)cc1 (stereo not given)	/	/	/	0.7	1.0	3.0	-4.9	-1.2
C=CCn1c2ccccc2c(=O)c2cc(C#CC[C@@H](C)O)ccc21	/	/	/	4.6	-3.9	-70.4	5.8	12.7
COc1ccc(C(CNS(=O)(=O)c2ccc(NC(C)=O)c(OC)c2)N2CCCCC2)cc1 (stereo not given)	/	/	/	4.6	-0.6	-1.5	15.0	-1.2
Cc1ccc(NC(=O)CSc2nc(=O)n(CCCN(C)C)c3c2CCC3)c(C)c1	1.9	10.4	-0.8	-2.4	-0.9	0.7	-3.7	-2.0
COc1ccc(OC)c(NC(=O)CN(C)CCOc2ccc(Br)cc2)c1	?	22.7	-1.3	-5.9	0.5	1.5	0.3	-0.9
Cc1cc(C)n(-c2nc(SCCN(C)C)c3c4c(sc3n2)CCCC4)n1	-0.4	41.0	78.8*	30.5	-0.6	-22.9	-1.4	22.6

Reformatted in markdown: part of the list above
| SMILES | RanGTP-Imp inh | T cruzi inh | Calb FLC | Beta apoptosis | Bfl-1 A1 inh | UCH37 inh | LANA-H2A inh | Beta2AR agonist |
| --- | --- | --- | --- | --- | --- | --- | --- | --- |
| CC1CCCCC1NC(=O)CCS(=O)(=O)c1ccc(Cl)cc1 (stereo not given) | / | / | / | 0.7 | 1.0 | 3.0 | -4.9 | -1.2 |
| CC1=C(C(=O)Nc2cccc(C(=O)NCc3ccccc3C)c2)SCCO1 | 0.9 | 10.4 | ? | -1.5 | ? | 3.9 | -5.7 | -2.7 |

Following part:
SMILES	RanGTP-Imp inh	T cruzi inh	Calb FLC	Beta apoptosis	Bfl-1 A1 inh	UCH37 inh	LANA-H2A inh	Beta2AR agonist
COC(=O)c1ccc(N2CCN(S(=O)(=O)c3ccccc3)CC2)c([N+](=O)[O-])c1	0.9	1.4	-1.4	-2.0	-0.5	7.1	1.3	4.1
Cc1nnc(NC(=O)c2ccc(-c3ccc(Cl)cc3)o2)s1	2.6	5.4	-0.4	2.6	0.8	-158.8	-4.6	5.5
COc1ccc(C(O)(CCN2CCCCC2)C2CCCCC2)cc1 (stereo not given)	2.8	4.5	7.6	-15.6	-0.3	2.8	0.5	9.1
CC1(C(=O)Nc2c(F)c(F)c(F)c(F)c2F)CC1(Br)Br (stereo not given)	-2.5	-6.5	-3.0	0.3	0.6	4.7	2.1	1.4
Cc1c(C(=O)c2cccc([N+](=O)[O-])c2)c2ccccn2c1CCC#N	-2.1	-5.6	7.3	-0.5	-0.4	3.9	-0.6	-15.5
O=C(CCCNC(=O)c1ccc(Cl)cc1)Nc1ccccc1F	-5.5	-16.7	-1.3	-5.7	0.6	4.7	-2.4	-1.8
Cc1n[nH]c(=O)c2c(NC(=O)COC(=O)c3cccc(OC(F)F)c3)oc(C)c12	2.5	-1.2	30.7	-8.5	0.1	2.3	-9.4	28.8
CCc1cc2c(=O)c(-c3ccc4c(c3)OCCO4)coc2c(CN2CCCCC2C)c1O (stereo not given)	-6.2	56.5*	29.9	6.6	2.0	-405.6	3.8	-6.5
Cn1c2ccc(F)cc2c2ncn(Cc3ccccn3)c(=O)c21	4.9	/	3.4	/	0.1	-115.7	1.5	-14.5
O=C(NNC(=O)c1cccc(-n2cccc2)c1)c1ccc(F)cc1	/	5.5	-9.6	-1.6	1.0	-0.4	3.2	0.5
Cc1ccc(C(=O)OCC(=O)Nc2sc3c(c2C#N)CCC3)cc1	7.1	4.8	-2.9	-1.3	-0.2	-21.4	1.3	-0.2
Cc1nnc(SCC(=O)NC(=O)NC2CCCC2)n1N	/	/	/	-0.9	0.6	1.8	-4.3	-1.2
O=C(NC1CC1)c1ccc2snnc2c1	3.9	-16.3	0.0	-5.1	0.2	0.3	-0.1	0.8
O=C1C2CC=CCC2C(=O)N1CC1CCCO1 (stereo not given)	1.1	7.1	-10.7	-1.9	0.6	1.2	7.0	0.2
COc1ccc(OC)c(C2=NOC(C(=O)Nc3cccc(C(C)=O)c3)C2)c1 (stereo not given)	-0.7	0.0	1.0	1.8	0.6	-2.8	-4.9	5.4
O=C(Cc1ccc(S(=O)(=O)N2CCCC2)s1)NC1CCCCCC1	-1.0	-3.8	-13.9	3.2	0.7	3.1	-0.7	-3.2
Sc1nnc(-c2ccc(Cl)cc2)n1Cc1ccccc1	/	/	/	6.2	0.1	2.3	-1.8	7.4
S=c1[nH]nc(CN2CCCC2)n1Cc1ccccc1	-0.2	-4.8	-8.4	-0.2	1.3	1.8	-1.5	-2.9
COc1cc(C)c(C(C)C)cc1S(=O)(=O)N1CCN(C)CC1	2.4	-2.7	25.4	-1.3	0.6	4.7	-0.2	-2.2
Cc1ccc2c(c1)N(C(=O)CCC(=O)NCc1cccc(Cl)c1)CC(C)O2 (stereo not given)	?	-1.9	-10.9	-5.7	-0.3	1.4	-1.6	-11.4
COc1ccccc1CNC(=O)COC(=O)c1ccncc1	/	/	/	2.7	1.7	-2.0	1.8	2.7
COc1cccc(C(=O)NOCc2ccccc2)c1OC	/	/	/	2.6	-1.0	0.3	1.6	-2.9
Cn1c(CCc2ccccc2)n[nH]c1=S	22.1	7.5	-3.3	7.2	0.2	2.5	-6.7	-5.9
CC1c2nc3ccccc3n2C(CC(=O)NCCCN2CCOCC2)C(=O)N1Cc1ccccc1 (stereo not given)	?	-13.6	-5.9	-9.7	-0.1	0.2	0.3	-4.7
COc1ccc(CCNC(=O)C(=O)NCC2OCCN2S(=O)(=O)c2ccccc2)cc1 (stereo not given)	2.2	-0.4	-4.6	-2.3	0.2	4.5	2.4	-23.1
(continued)
SMILES	RanGTP-Imp inh	T cruzi inh	Calb FLC	Beta apoptosis	Bfl-1 A1 inh	UCH37 inh	LANA-H2A inh	Beta2AR agonist
CCOc1cc(NC(=S)NCC2CCCO2)c(OCC)cc1NC(=O)c1ccc(C)cc1 (stereo not given)	0.8	25.7	28.0	5.4	-0.6	2.5	-1.6	1.2
COC(=O)/C(=C\c1ccc2c(c1)c1ccccc1n2C)NC(=O)c1ccccc1	-2.5	18.0	-10.2	-4.3	2.2	-27.6	-6.9	-26.2
CCOC(=O)/C(=N/Nc1ccc(Cl)cc1)Sc1nnnn1-c1ccc(C)cc1	-0.2	3.9	-24.8	-3.8	0.2	/	-6.7	0.9
FC(F)(F)Oc1ccc(Nc2nc3ccccc3o2)cc1	0.7	6.2	7.0	-7.3	-0.4	4.1	-2.3	1.2
CC1CCN(C(=S)NC(=O)C2CCCCC2)CC1	-1.0	21.5	-7.1	0.0	0.9	2.1	2.5	10.1
CCC(C)C(=O)OCC1(c2ccc(C)cc2OC(=O)C(C)C)CO1 (stereo not given)	-2.9	-14.3	-2.2	/	0.1	/	5.1	1.1
CC1(c2nnc(-c3ccc(F)cc3)o2)CC(c2ccc(Cl)cc2)=NO1 (stereo not given)	-4.1	-5.0	9.9	/	1.0	0.0	-0.1	-10.0

Sorted by value in Beta2AR agonist (ascending): some entries from above.
SMILES	Beta2AR agonist
CC1(c2nnc(-c3ccc(F)cc3)o2)CC(c2ccc(Cl)cc2)=NO1 (stereo not given)	-10.0
CCOC(=O)/C(=N/Nc1ccc(Cl)cc1)Sc1nnnn1-c1ccc(C)cc1	0.9
CCC(C)C(=O)OCC1(c2ccc(C)cc2OC(=O)C(C)C)CO1 (stereo not given)	1.1
FC(F)(F)Oc1ccc(Nc2nc3ccccc3o2)cc1	1.2

High-throughput results from PubChem BioAssay.
